B2AR ag: agonists of human beta-2 adrenergic receptor inducing internalization; P07550; Am2.2-beta2AR cells, FAP receptor internalization, flow cytometry; reference of the scale not given here; response, % (no concentration beside the values); hit rate 0.43% among 340,000; AID 504454;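 active = response above a set limit, near 3 SD of response in nonfluorescent compounds, cut at about 42% in these data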;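 also: stock transfer was 100 nL into about 11 µL; a reference agonist was the positive control; negative values mostly stem from fluorescent compounds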
Target sequence (P07550 whole entry, looked up): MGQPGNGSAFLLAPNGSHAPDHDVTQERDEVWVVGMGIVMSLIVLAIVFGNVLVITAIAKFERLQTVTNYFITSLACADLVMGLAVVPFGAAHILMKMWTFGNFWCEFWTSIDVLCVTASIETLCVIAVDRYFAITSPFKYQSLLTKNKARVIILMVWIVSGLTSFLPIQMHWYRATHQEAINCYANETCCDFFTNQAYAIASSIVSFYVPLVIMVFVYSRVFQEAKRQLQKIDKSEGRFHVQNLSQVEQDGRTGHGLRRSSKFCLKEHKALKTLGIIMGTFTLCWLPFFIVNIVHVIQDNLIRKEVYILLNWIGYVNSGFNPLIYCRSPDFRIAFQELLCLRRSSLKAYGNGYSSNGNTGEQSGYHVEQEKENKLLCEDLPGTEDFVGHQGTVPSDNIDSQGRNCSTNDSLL
LANA-H2B inh: blocks KSHV LANA binding to histone H2A/H2B; Q9QR71; cell-free LANA-H2A/H2B peptide, fluorescence polarization; inhibition, % (concentration not given with the values); hit rate 0.6% among 320,000; AID 2629; in the data active = inhibition mostly above about 10%, no sharp cut-off; inactive = mostly below about 6.7%;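 also: stock transfer was 7.5 nL into about 10 µL; 0% = median of vehicle wells and 100% = median of positive control wells; one replicate is shown; the record names a cut of 25% in any replicate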
T cruzi inh: T. cruzi replication inhibition. hit rate 1.4% among 300,000. T. cruzi beta-gal in NIH3T3, luminescence, 90 h. inhibition, % (concentration not given with the values);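 active = mean inhibition across valid replicates above about 55%, limit read from the data; inconclusive = mean below that limit but half or more replicates reach it; inactive = mean below it, under half of replicates reach it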;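 also: signal also drops with host cell toxicity which is not excluded here; 0% = plate median of DMSO wells and 100% = zero luminescence signal; higher percent means less beta-gal luminescence so fewer parasites; stock transfer was 50 nL into about 50 µL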
Bfl-1 A1 inh: inhibitors of the anti-apoptotic protein A1, read as caspase activation; AID 2462; hit rate 0.066% among 330,000; caspase activation, % (test concentration not listed); MEF A1-2A-BIM cells, Caspase-Glo 3/7 luminescence, 3 h; percent of clofoctol response, vehicle zero;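 active = over half of replicate activation scores above 10%, or exactly half above 10 with the replicate mean above 10; inconclusive = replicate mean below 10 yet half the replicates above 10; inactive = over half of replicates below 10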;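 also: wells of about 30 µL received 50 nL stock; many hits fall short of the cut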
Beta cell apopt: beta cell apoptosis inhibition. AID 435005. INS-1E cytokine-induced death, ATP luminescence, 48 h; percent of positive-control rescue, neutral wells zero. protection from apoptosis, % (test concentration not listed). hit rate 0.8% among 300,000;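 active = all replicates at 75% or more, or half of them and the mean; inconclusive = half reach 75% but not the mean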;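 also: 0% = cytokine-treated negative control wells and 100% = positive control rescue; higher means more ATP so stronger rescue from cytokine killing; wells of about 40 µL received 100 nL stock; the first replicate is given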
ALR inh: human ALR oxidase inhibition via reduced H2O2; P55789; purified ALR, DTT oxidation, H2O2 HRP-luminol luminescence; inhibition, % (test concentration not listed); hit rate 3.8% among 290,000; AID 485317;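 active = mean and each replicate at 75% or more; inconclusive = only one of the two met; inactive = neither met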;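 also: stock transfer was 7.5 nL into about 7.5 µL; 0% = neutral wells and 100% = wells with inactivated enzyme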
Target sequence (P55789 whole entry, looked up): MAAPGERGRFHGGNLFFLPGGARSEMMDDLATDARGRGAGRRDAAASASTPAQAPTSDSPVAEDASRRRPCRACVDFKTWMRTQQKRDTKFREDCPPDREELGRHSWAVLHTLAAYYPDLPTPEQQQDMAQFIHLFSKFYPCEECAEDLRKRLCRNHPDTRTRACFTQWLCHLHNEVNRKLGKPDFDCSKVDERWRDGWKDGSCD
Calb FLC: C. albicans growth modulation with fluconazole; C. albicans CaCi-2 (fluconazole-resistant clinical isolate) + fluconazole, Alamar Blue growth, 48 h; growth inhibition, % (concentration not given with the values); hit rate 0.57% among 300,000;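 active = most replicates above 75%; inconclusive = exactly half above 75%; inactive = most below 75%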;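 also: all wells also contain fluconazole at 8 µg/ml as a sub-toxic cotreatment; 0% = median of DMSO wells and 100% = median of geldanamycin control wells; wells of about 8 µL received 7.5 nL stock; the first replicate is given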
rRNA inh HTS: inhibits bacterial ribosomal RNA function over humanized ribosomes | E. coli WT GFP vs humanized-ribosome RFP mutants, fluorescence, 24 h; active compounds read low; DMSO median 0, no signal -100 | GFP signal change (wild-type ribosome), % (test concentration not listed) | hit rate 1.6% among 350,000;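 active = significant combined selectivity score with lowered wild-type GFP, culture density cut under 30%, mutant RFP and density less affected; inactive = any of these conditions unmet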; also: one replicate is shown; some compounds called inactive have numbers as strong as hits
rRNA inh HTS OD600: also measured in rRNA inh HTS; calls as there; OD600 change, %; measured here: OD600 growth;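 optical density of the mix in the first replicate; 0 = DMSO median and -100 = no signal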
rRNA inh HTS RFP: second read-out of rRNA inh HTS, no call of its own (marks repeat the call); RFP signal change, %; measured here: RFP humanized mutant strains;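 first replicate; 0 = DMSO median and -100 = no signal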
Numbers without * were called inactive; ? = inconclusive; · = not tested or not shown; & = joins results of further samples. Not all compounds are listed; the hit share may differ from the screen's.

SMILES	B2AR ag	LANA-H2B inh	T cruzi inh	Bfl-1 A1 inh	Beta cell apopt	ALR inh	Calb FLC	rRNA inh HTS	rRNA inh HTS OD600	rRNA inh HTS RFP
COC(=O)C1(C(=O)O)Cc2cc([N+](=O)[O-])ccc2N2CCCC21 (configuration not stated)	-2	0.9	-3	1.5	1	-22	0	-1	7	-0.1
COC(=O)C1=C(c2cccc(C#N)c2)C[C@@H]2CC[C@H]1N2C(=O)NCCOc1ccccc1	-2	1.9	·	0.0	-2	1	·	-1	2	-5.3
CCc1ccc(OCC(=O)N2CCN(Cc3ccc4c(c3)OCO4)CC2)cc1	-3	-6.7	17	0.5	-2	-3	-61	-28	-23	-1.8
COC(=O)CSC1=NP(=S)(SCC(=O)OC)N2CCCC2=C1C#N (configuration not stated)	-4	-1.4	8	0.9	-8	98*	·	·	·	·
CN1CCCC(C(=O)c2ccc(-c3ccccc3)cc2)C1 (configuration not stated)	-7	-2.3	14	-1.1	4	-5	-1	-5	-9	5.6
Cn1c(=O)cc(OCC(=O)N2CCN(C3CCCCC3)CC2)c2ccccc21	-6	3.4	-4	-0.7	4	-6	-1	5	7	-1.9
Cc1nc2ccccn2c1P(=S)(N1CCCCC1)N1CCCCC1	11	-0.4	31	0.4	1	0	-10	·	·	·
COc1ccc(CCn2c(O)c(C=NC3CC3)c(=O)[nH]c2=O)cc1OC	3	-5.2	-10	-1.5	-1	·	-3	·	·	·
O=C(N/N=C/c1c(O)n(Cc2ccc(F)cc2)c(=O)[nH]c1=O)c1ccccc1	4	-5.7	-16	0.3	-1	12	-21	16	5	4.8
COC(=O)C(O)(c1c(C)[nH]c2ccccc12)C(F)(F)F (configuration not stated)	-1	1.1	·	-0.7	-1	-3	·	·	·	·
OC12Oc3ccccc3C=C1N1CCC2CC1 (configuration not stated)	0	-3.8	-5	-1.5	3	-1	-4	·	·	·
CCOc1ccc(-n2c(O)c(C=NCCN(CC)CC)c(=O)[nH]c2=O)cc1	2	-0.6	0	0.3	1	-13	-4	·	·	·
Cc1cccc(C#N)c1	-2	-2.1	·	0.0	-4	0	·	3	5	-0.3
CN1CCN(C(=O)OC2c3nccnc3C(=O)N2c2ccc(Cl)cn2)CC1 (configuration not stated)	·	-1.3	11	0.4	-3	-3	·	·	·	·
COc1cccc(C(=O)C2CCCN(Cc3ccc4nsnc4c3)C2)c1 (configuration not stated)	0	-0.9	1	-1.4	2	·	-11	-22	-18	5.6
CCOC(=O)c1ccc(N=C(c2ccccc2)c2c(O)n(C)c(=O)n(C)c2=O)cc1	-2	0.0	1	-0.2	-6	4	3	-5	8	0.7
ON1C2CCCCC2N(O)C1c1ccccc1 (configuration not stated)	6	1.8	-4	-0.2	-1	4	7	10	10	-0.1
COc1cccc(C(=O)C2CCCN(Cc3ccc(F)cc3)C2)c1 (configuration not stated)	-6	-4.6	31	0.5	-5	·	5	1	6	-0.6
CC(C)c1ccc(OCC(=O)N2CCN(C)CC2)c(Br)c1	-26	5.6	12	0.5	-3	-10	-8	·	·	·
CC(=O)OC1C2CCCC1C(N1CCCC1)CC2 (configuration not stated)	-3&13	-2.2&0.8	-13&-6	-0.5&0.4	3&-3	1&-4	-2&-4	·	·	·
CC1CN(O)C2CCc3nonc3C12O (configuration not stated)	6	0.5	-16	0.6	0	-14	-2	·	·	·
CN1C(=O)C(=Cc2ccccc2OCc2ccc(C(=O)O)cc2)C(=O)N(C)C1=O	0	3.4	-1	1.3	-9	26	6	7	6	0.1
O=c1[nH]c(=S)[nH]c(O)c1/C=N/N1CCOCC1	2	1.2	-8	-1.4	-28	·	1	10	10	6.8
CCc1ccc(-c2nn(Cc3ccccc3)cc2C=O)cc1	-10	0.3	9	0.7	2	2	11	-18	-42	-8.6
COP(=O)(C#Cc1ccccc1)C(O)c1ccc(Br)cc1 (configuration not stated)	-2	-3.8	-6	-0.1	-8	22	3	-30*	-19*	0.6*
CN1C(=O)c2ccccc2NC(=O)[C@]12O[C@@H]2c1ccccc1	7	-2.2	2	-1.2	-4	98*	-1	15	9	-4.0
COc1cc2c(c(OC)c1OC)-c1ccc(O)c(=O)cc1[C@@H](N)CC2	11	-4.4	·	0.6	4	-6	·	·	·	·
CCN(CC)c1ccc(CNCCc2ccc(F)cc2)cc1	13	-1.9	53	1.0	12	·	-20	0	-12	4.3
O=[N+]([O-])c1ccc(CN2CC=C(c3ccccc3)CC2)cc1	-1	0.6	27	-0.3	2	-7	-2	·	·	·
Cc1cc(OCC(=O)NC(Cc2ccc(Cl)cc2)C(=O)O)c2c3c(c(=O)oc2c1)CCC3 (configuration not stated)	-22	7.2	-4	-0.8	-6	16	-7	-25	-22	2.8
CCOC(=O)[C@@]1(C#N)C(c2ccc(Cl)c(Cl)c2)[C@H](C(N)=O)N2C=C(C(C)=O)C=C[C@H]21 (some centres not stated)	0	3.2	·	-0.6	-3	-2	0	·	·	·
CCn1ccnc1CN1CCCC(C(=O)c2ccc(SC)cc2)C1 (configuration not stated)	-54	-1.8	5	-0.1	-6	4	-15	·	·	·
CC1CCCC(C2(O)C(=O)Nc3ccccc32)C1=O (configuration not stated)	-2	-0.6	-4	0.6	2	-25	-3	·	·	·
C=CCn1c(O)c(C(C)=NCC2CCCO2)c(=O)[nH]c1=O (configuration not stated)	13	2.0	14	-0.2	-3	-20	-1	0	8	-0.3
COc1ccc(NC(=O)N2CCC3(CC2)OCCO3)cc1OC	4	-4.1	-8	-0.3	7	-13	10	·	·	·
CCCCCCn1c(=O)c(C(=O)Nc2nc(CC(=O)OCC)cs2)c(O)c2ccccc21	13	6.9	-25	0.1	16	4	6	1	-1	-2.1
COC(=O)c1c2[n+](cc3cc(OC)c(OC)cc13)CCc1cc(OC)c(OC)cc1-2	-5	2.9	3	0.4	13	-11	-14	17	0	3.6
Cc1cc(C)cc(NC(=S)NC2CC3CCCC(C2)N3Cc2cccs2)c1 (configuration not stated)	3	0.0	32	0.0	-1	-3	-28	-34	-35	8.3
CCn1cc(C(=O)c2cccs2)c2ccccc21	-8	-5.0	12	0.5	3	3	34	·	·	·
Cc1cccc(OCC(=O)N2CCN(Cc3ccc4c(c3)OCO4)CC2)c1	3	-3.2	-2	0.7	-2	-16	5	-7	-3	-0.3
COC(=O)C1=C(c2ccc(F)cc2OCc2ccccc2)C[C@@H]2CC[C@H]1N2C(=O)NCc1ccc(Br)cc1	4	-0.7	·	2.0	-1	1	·	20	5	-5.6
Cn1c(=O)cc(OCCCC(=O)N2CCC3(CC2)OCCO3)c2ccccc21	-13	-0.1	-2	0.1	-8	0	-6	·	·	·
O=c1cccc2n1CC1CC2CN(c2nc(N3CCCCC3)nc(N3CCCCC3)n2)C1 (configuration not stated)	9	0.6	2	1.8	2	17	1	2	-7	1.7
O=C(COc1ccccc1)N1CCN(Cc2c[nH]c3ccccc23)CC1	-1	0.6	12	0.2	28	1	-2	·	·	·
CCC[N+]12CCC(CC1)C(=C(c1ccccc1)c1ccccc1)C2	4	2.8	1	1.0	12	-3	-4	·	·	·
O=C(O)c1ccccc1NC(=O)C1C2CCC(O2)C1C(=O)O (configuration not stated)	·	1.1	-9	0.1	0	3	0	·	·	·
CCC(=O)c1cc(F)c(N2CCN(CC)CC2)cc1C	-4	2.7	-16	0.0	-2	0	2	·	·	·
CCCCn1c(O)c(C(CC)=NCc2ccco2)c(=O)[nH]c1=O	-2	-0.1	-4	0.2	5	-3	?	·	·	·

For reference, 3 of the compounds above:
SMILES	B2AR ag	LANA-H2B inh	T cruzi inh	Bfl-1 A1 inh	Beta cell apopt	ALR inh	Calb FLC	rRNA inh HTS	rRNA inh HTS OD600	rRNA inh HTS RFP
COC(=O)c1c2[n+](cc3cc(OC)c(OC)cc13)CCc1cc(OC)c(OC)cc1-2	-5	2.9	3	0.4	13	-11	-14	17	0	3.6
Cc1cc(C)cc(NC(=S)NC2CC3CCCC(C2)N3Cc2cccs2)c1 (configuration not stated)	3	0.0	32	0.0	-1	-3	-28	-34	-35	8.3
CCn1cc(C(=O)c2cccs2)c2ccccc21	-8	-5.0	12	0.5	3	3	34	·	·	·

Additional structures:
SMILES	B2AR ag	LANA-H2B inh	T cruzi inh	Bfl-1 A1 inh	Beta cell apopt	ALR inh	Calb FLC	rRNA inh HTS	rRNA inh HTS OD600	rRNA inh HTS RFP
Cc1ccc2c(c1)N(C(C)C(=O)N1CCC3(CC1)OCCO3)C(=O)CO2 (configuration not stated)	-3	1.9	1	0.1	-3	-23	2	10	10	1.2
COC(=O)[C@@H]1[C@@H](C(=O)OC)C2(c3ccccc3-c3ccccc32)N(c2ccc(Cl)cc2)N1C#N	25	-1.0	56*	-1.1	50	5	-7	2	3	-3.5
O=C(NCCN1CCOCC1)c1ccc(Cl)nc1Cl	10	-0.4	-27	0.6	-6	-7	-1	13	12	0.6
Cc1ccccc1N1C(=O)NC(=O)/C(=C/c2ccc(N3CCOCC3)o2)C1=O	-59	-38	-16	0.3	1	6	2	15	3	13
CC12CN3CC(C)(CN(C1)C3c1cccs1)C2=O (configuration not stated)	2	-1.1	-22	0.1	3	-1	7	·	·	·
CC(C)(C#CC(=O)O)OOC(c1ccccc1)(c1ccccc1)c1ccccc1	5	1.5	-10	1.0	0	6	47	-8	-7	0.8
COC(=O)C1=C(c2cc3ccccc3s2)C[C@@H]2CC[C@H]1N2C(=O)N1CCC(O)CC1	-5	-3.0	31	0.1	1	-7	1	-7	-1	4.3
CCN1CCN(C(=O)Cc2c(C)n(C(=O)c3ccc(Cl)cc3)c3ccc(OC)cc23)CC1	6	-1.4	6	-1.4	-3	-8	-21	-15	-13	32
COC(=O)CC1=C(C(=O)OC)C2(C(=O)N(C)c3ccccc32)C(C#N)=C(N)O1 (configuration not stated)	-4	4.3	-3	-0.3	·	2	-24	·	·	·
Cn1c[n+](C)cc1C(O)c1ccccc1 (configuration not stated)	-1&-2	-2.5&1.2	-12&-7	0.8&0.0	1&-10	-15&-2	-2&-3	·	·	·
CCCC(=O)NC(Oc1ccc(OC)cc1)C(Cl)(Cl)Cl (configuration not stated)	6	-2.6	0	-0.3	-4	-10	-3	-6	-13	-1.8
CCN1/C(=C\C=C\C2=[N+](CC)c3ccccc3C2(C)C)C(C)(C)c2ccccc21	-566	-215	55*	-2.6	119*	88*	-6	·	·	·
O=[N+]([O-])c1ccccc1CCl	11	0.6	·	-0.3	0	-20	·	10	11	1.7
c1ccc2c(CN3CCCCCC3)c[nH]c2c1	-1	-7.4	48	0.9	100*	0	-1	25	7	1.8
O=C(NC(Cc1ccccc1)C(=O)N1CCC2(CC1)OCCO2)C1CCCCC1 (configuration not stated)	-5	-0.2	-1	1.1	-4	6	2	·	·	·
C[N+]1(C)[C@@H]2CC[C@H]1CC(OC(=O)C(c1ccccc1)c1ccccc1)C2 (some centres not stated)	-4	0.8	1	-0.7	-1	11	-4	14	6	-0.8

Screening results deposited in PubChem by several laboratories.
